WRN helicase inh = WRN helicase (human) inhibition | Q14191 | WRN helicase unwinding, fluorescent forked duplex, kinetic | Potency, µM (titrated, usually from 114 µM), without a hit: at the top dose activity change, negative = inhibition, usual class: inhibitors | actives 0.46% (n = 360,000) | AID 651768; further: potency means the concentration at half of the fitted maximal effect; on the % scale 0 is the no-effect control and ±100 the full control effect; nearly all actives have a fitted effect of over 55% in size
Target sequence (Q14191 whole entry, looked up): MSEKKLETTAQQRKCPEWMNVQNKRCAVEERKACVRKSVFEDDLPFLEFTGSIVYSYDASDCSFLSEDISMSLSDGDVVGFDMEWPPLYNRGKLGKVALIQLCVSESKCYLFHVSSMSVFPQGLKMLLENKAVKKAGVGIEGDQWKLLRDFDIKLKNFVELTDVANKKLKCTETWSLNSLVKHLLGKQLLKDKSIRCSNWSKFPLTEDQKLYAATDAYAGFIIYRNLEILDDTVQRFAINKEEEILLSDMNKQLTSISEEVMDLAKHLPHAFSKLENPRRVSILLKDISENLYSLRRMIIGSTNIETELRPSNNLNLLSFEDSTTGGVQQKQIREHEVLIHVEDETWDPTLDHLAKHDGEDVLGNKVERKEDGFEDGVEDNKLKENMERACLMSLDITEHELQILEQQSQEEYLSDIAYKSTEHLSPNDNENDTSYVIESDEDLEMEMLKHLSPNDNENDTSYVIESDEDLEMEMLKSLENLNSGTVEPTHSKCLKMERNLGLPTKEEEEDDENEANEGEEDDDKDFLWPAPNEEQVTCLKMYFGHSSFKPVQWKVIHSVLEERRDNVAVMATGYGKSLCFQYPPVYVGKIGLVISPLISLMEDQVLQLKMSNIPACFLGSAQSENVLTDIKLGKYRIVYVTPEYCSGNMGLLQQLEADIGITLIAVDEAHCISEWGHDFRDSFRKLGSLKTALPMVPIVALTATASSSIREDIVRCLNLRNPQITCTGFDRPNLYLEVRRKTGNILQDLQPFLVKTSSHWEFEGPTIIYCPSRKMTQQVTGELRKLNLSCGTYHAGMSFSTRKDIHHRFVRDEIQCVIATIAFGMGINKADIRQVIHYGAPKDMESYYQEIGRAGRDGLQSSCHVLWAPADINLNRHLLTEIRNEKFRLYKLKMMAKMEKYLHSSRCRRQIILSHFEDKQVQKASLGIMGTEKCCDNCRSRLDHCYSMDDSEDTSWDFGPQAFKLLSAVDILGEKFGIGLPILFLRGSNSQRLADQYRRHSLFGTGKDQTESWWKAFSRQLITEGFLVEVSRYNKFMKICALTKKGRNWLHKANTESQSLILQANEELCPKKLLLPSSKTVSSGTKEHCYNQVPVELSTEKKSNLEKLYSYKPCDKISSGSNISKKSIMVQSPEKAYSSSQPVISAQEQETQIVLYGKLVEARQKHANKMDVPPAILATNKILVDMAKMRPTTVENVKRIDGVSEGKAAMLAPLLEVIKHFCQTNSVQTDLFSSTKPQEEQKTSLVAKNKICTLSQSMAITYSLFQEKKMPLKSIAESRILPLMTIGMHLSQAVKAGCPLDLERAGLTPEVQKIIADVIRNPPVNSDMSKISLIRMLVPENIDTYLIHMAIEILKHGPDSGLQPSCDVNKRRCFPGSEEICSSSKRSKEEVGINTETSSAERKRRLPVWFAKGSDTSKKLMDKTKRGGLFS
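Fluorescence dequenching readout, ex 525 nm/em 598 nm, kinetic mode: forked duplex DNA (100 nM final) with adjacent fluorophore and quencher unwound by WRN (20 nM final) with 2 mM ATP. Compound preincubation 15 min, room temperature.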
EPAC2 ag = activates human EPAC2 exchange factor. Q8WZA2. EPAC2 activation, biochemical qHTS; response scale: 100% = 6.5 mM cAMP response. Potency, µM (highest dose often 154 µM), without a hit: at the highest dose activation, actives largely listed as activators. actives 0.079% (n = 360,000). AID 720711; further: potency means the concentration at half of the fitted maximal effect; nearly all actives have a fitted effect of over 50% in size
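EPAC2 (100 nM) mixed with Rap1B loaded with BODIPY-GDP (250 nM) plus 50 uM unlabeled GDP; compounds pinned in, 5 min RT, then read every 5 min for 30 min (ex 480, em 540 nm). Normalized to cAMP control.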
PI5P4K alpha inh = inhibitors of human PI5P4K alpha; P48426; PI5P4Kalpha enzyme, ADP-Glo luminescence, 60 min; stronger effect = lower value; max response, %; actives 1.2% (n = 330,000); AID 652105; active means max response of -50% or lower; inconclusive means between -30% and -50%; inactive means -30% or higher; further: value at the top dose of about 77 µM; on the % scale 0 is the no-effect control and ±100 the full control effect
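Single end-point luminescence (ADP-Glo) quantified ADP from PI5P4Kalpha turnover; ATP 5 microM final, 1 h at RT, 0.1% CHAPS and 0.28 mM EGTA in HEPES pH 7.4.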
IL2 activator = activators of IL-2. IL-2 activation reporter assay, cell-based qHTS; stimulated with anti-CD3/CD4/CD28 beads; in transgenic mouse T cells. activation, % (series mostly up to about 46 µM). actives 0.065% (n = 360,000). AID 652025; in the data active means activation above about 50%; inconclusive means mostly about 30% to 49%; further: 0% is about no effect
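Unstimulated transgenic mouse T cells, 750 per well, received compound and, after 60 minutes, anti-CD3/anti-CD4 bead plus anti-CD28 stimulation. EGFP and DsRed were quantified after 18 hours.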
Active calls of the source: *; ? = inconclusive; & = joins results of further samples; [ ] = another dose, or the depositor's remark. Unless noted, the call rests on the fitted dose curve; in most records, active means well fitted curve in the direction sought with a large enough effect; inconclusive means small, poorly fitted or top-dose-only effect, or another doubt; inactive means no such curve, though single readings can be large; an effect the other way counts as inactive or inconclusive.

SMILES	WRN helicase inh	EPAC2 ag	PI5P4K alpha inh	IL2 activator
C/C(=N\NC(=O)c1nnn(-c2nonc2N)c1-c1ccccc1)c1ccco1	1%	8%	-7	-2.5
Nc1nc(Cl)c(N)c(NCC2(CO)CC(CCc3ccccc3)C2)n1 (configuration not stated)	-34%	0%	?	-0.5
Nc1nc2ccc([N+](=O)[O-])c(N)c2s1	-21%	0%	-58*	0.1
Cc1cc(C)c(/C=C2\C(=O)Nc3ccccc32)[nH]1	5%	-68%[inhibitor]	22	2.7
Oc1c(Cl)cc(Cl)c(Cl)c1Cc1c(O)c(Cl)cc(Cl)c1Cl	-30%	-4%	?	0.2
CCN(CC)CC(=O)Nc1c(C)cccc1C	-5%&-1%&2%	6%&3%&7%	0&8&8	-0.2&0.1&-0.5
C[N+]1(C)CCC(OC(=O)C(O)(c2ccccc2)C2CCCC2)C1 (configuration not stated)	3%	3%	12	1.6
C(=N\Nc1nc2ccccc2[nH]1)/c1c[nH]c2ccccc12	-22%	7%	0	-6.0
COc1cc(C(=O)NC2CCN(C)CC2)ccc1Nc1ncc2c(n1)N(C1CCCCC1)CCC(=O)N2C	-23%	16%	-3	-0.1
Nc1c(C2CCCCC2)c(=O)on1C(=O)c1ccccc1	-19%	3%	-2	-0.2
O=C(NCC1CCCO1)c1ccc(/C=N/O)nc1 (configuration not stated)	10%	-1%	?	-1.4
c1ccc(Nc2ccnc(Nc3ccccc3)n2)cc1	-3%	15%	8	-0.8

Arranged by length of the SMILES (high to low): 10 of the compounds above
SMILES	WRN helicase inh	EPAC2 ag	PI5P4K alpha inh	IL2 activator
COc1cc(C(=O)NC2CCN(C)CC2)ccc1Nc1ncc2c(n1)N(C1CCCCC1)CCC(=O)N2C	-23%	16%	-3	-0.1
C/C(=N\NC(=O)c1nnn(-c2nonc2N)c1-c1ccccc1)c1ccco1	1%	8%	-7	-2.5
C[N+]1(C)CCC(OC(=O)C(O)(c2ccccc2)C2CCCC2)C1 (configuration not stated)	3%	3%	12	1.6
Nc1nc(Cl)c(N)c(NCC2(CO)CC(CCc3ccccc3)C2)n1 (configuration not stated)	-34%	0%	?	-0.5
C(=N\Nc1nc2ccccc2[nH]1)/c1c[nH]c2ccccc12	-22%	7%	0	-6.0
Cc1cc(C)c(/C=C2\C(=O)Nc3ccccc32)[nH]1	5%	-68%[inhibitor]	22	2.7
Nc1c(C2CCCCC2)c(=O)on1C(=O)c1ccccc1	-19%	3%	-2	-0.2
Nc1nc2ccc([N+](=O)[O-])c(N)c2s1	-21%	0%	-58*	0.1
O=C(NCC1CCCO1)c1ccc(/C=N/O)nc1 (configuration not stated)	10%	-1%	?	-1.4
CCN(CC)CC(=O)Nc1c(C)cccc1C	-5%&-1%&2%	6%&3%&7%	0&8&8	-0.2&0.1&-0.5

The list is partial (hit frequency here may not be typical).
